# GLA inh pH 4.5: qHTS Assay for Inhibitors of Human alpha-Galactosidase at pH 4.5 | purified enzyme, 4-MU-alpha-Gal fluorescence, pH 4.5 | activity change, negative = inhibition, % at 105 µM | 230,000 tested, under 10 active; inconclusive = small, poorly fitted or top-dose-only inhibition, or a rising curve; inactive = flat fitted curve, though single readings scatter; no compound was filed as active;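 further: 0% = full activity with enzyme and -100% = basal without enzyme; dose as in the result columns while the protocol names 77 µM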
# Target sequence (P06280 whole entry, looked up): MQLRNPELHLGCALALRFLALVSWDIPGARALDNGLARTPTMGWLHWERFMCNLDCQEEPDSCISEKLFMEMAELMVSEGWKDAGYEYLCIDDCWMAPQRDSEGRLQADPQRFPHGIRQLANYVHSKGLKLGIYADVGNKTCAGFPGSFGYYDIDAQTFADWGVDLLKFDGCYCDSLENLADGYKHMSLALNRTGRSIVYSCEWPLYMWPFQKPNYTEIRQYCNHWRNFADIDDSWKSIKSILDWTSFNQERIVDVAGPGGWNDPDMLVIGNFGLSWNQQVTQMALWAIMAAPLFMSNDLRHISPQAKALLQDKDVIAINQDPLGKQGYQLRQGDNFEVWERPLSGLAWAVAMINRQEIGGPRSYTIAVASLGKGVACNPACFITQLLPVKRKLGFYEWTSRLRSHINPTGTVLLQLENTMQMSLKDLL
# Rango-impB inh: qHTS Assay for Inhibitors of Rango (Ran-regulated importin-beta cargo) - Importin beta complex formation | Rango CFP/YFP FRET sensor + importin beta, 45 min | 0.031% of 340,000 active | Potency, µM (series often up to 92.2 µM), for the others: at the top dose inhibition of complex formation | Importin subunit beta-1 (Homo sapiens), Q14974 | AID 540263, 2011; active = rising FRET ratio curve, often small or poorly fitted; inconclusive = mostly compound fluorescence or quenching in the first reads; inactive = flat curves in all reads;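 further: potency means the concentration at half of the fitted maximal effect; 0% = DMSO wells and 100% = buffer wells lacking importin beta; nearly all actives have a fitted effect of over 15% in size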
#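 FRET biosensor (snurportin 1 IBB flanked by EYFP and cerulean), 50 nM, with compound 5 min, then 0.125 microM importin beta in PBS, 1 mM DTT, 0.02% Tween-20, 0.1% BSA. CFP/YFP ratio read after 45 min at room temperature; pre-read flags interference.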
# miR-21 FLuc: qHTS Assay for Modulators of miRNAs and/orActivators of miR-21; HeLa miR-21 FLuc reporter, luciferase, 48 h; Potency, µM (top dose mostly 38.3 µM), without a hit: at the highest dose reporter change, positive = more light; 340,000 tested, under 10 active; AID 2288, 2010; active = well fitted rising curve with a large enough effect; inconclusive = small, poorly fitted or top-dose-only effect; inactive = no such curve, though single readings can be large or run the other way;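 further: % of control where 0% means no effect; miR-21 action dims this reporter so a rising signal means less miR-21 action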
#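 HeLa cells endogenously expressing miR-21, stably carrying CMV-driven firefly luciferase with a downstream miR-21 binding site, 2000 cells/well. Titrations up to approximately 40 uM, 48 hours; luciferase luminescence read.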
# Rango dissoc inh: qHTS Assay for Inhibitors of RanGTP induced Rango (Ran-regulated importin-beta cargo) - Importin beta complex dissociation | Snurportin-1 (Homo sapiens) + GTP-binding nuclear protein Ran (Homo sapiens) + Importin … | Biochemical FRET Rango-importin beta, RanGTP-induced dissociation | Potency, µM (titrated, usually from 46.1 µM), without a hit: at the highest dose activity change, negative = inhibition | 0.071% of 340,000 active | AID 540253, 2011; active means falling FRET ratio curve, often poorly fitted, with flat reads before Ran was added; inconclusive means other falling curves, or compound fluorescence or quenching; inactive means flat or rising ratio curve;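 further: potency means the concentration at half of the fitted maximal effect; % of control where 0% means no effect; nearly all actives have a fitted effect of over 45% in size; -100% = wells without RanGTP and RCC1; the record marks most hits as doubtful in a second field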
#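 Rango FRET biosensor (snurportin-1 IBB flanked by N-terminal EYFP and C-terminal CFP10) at 0.1 uM, with 0.25 uM importin beta in PBS, 1mM DTT, 0.02% Tween-20, 0.1% BSA. 0.6 uM Ran, 2mM GTP and 0.2 uM RCC1 were then added for 45 min at room temperature. Inhibition read as loss of FRET rise.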
# * marks the source's active call; other numbers are inactive results; ? = inconclusive; · = no result given; & = joins results of further samples.
SMILES	GLA inh pH 4.5	Rango-impB inh	miR-21 FLuc	Rango dissoc inh
CCOc1ccc2ccccc2c1/C=N/n1cncn1	-5	9.4%	-10%	10%
O=C(Nc1ccc(-c2nc3ccccc3[nH]2)cc1)c1ccco1	-2	-4.0%	-46%	3%
COc1ccc(NC(=O)c2cc3c(Cl)nc4ccccc4c3s2)cc1OC	1	?	-15%	0%
Cc1csc(NC(=O)c2nc3nc(C)cc(C)n3n2)n1	-4	1.5%	-3%	-1%
CC12CCC(C(=O)NCC3CCCO3)(OC1=O)C2(C)C (stereo not given)	-1	-0.4%	-6%	-13%
O=c1c([N+](=O)[O-])c(N2CCOCC2)c2ccccc2n1-c1ccccc1	7	6.1%	-11%	-7%
CC(=O)Nc1cccc(C(=O)Nc2ccc(S(=O)(=O)NC3=NCCCCC3)cc2)c1	·	-0.2%	·	3%
O=C(O)CSC1c2ccccc2C(=O)N1Cc1ccccc1 (stereo not given)	-4	0.3%	-11%	2%
COC(=O)C(Cc1ccccc1)NC(=O)CNC(=O)c1ccccc1OC (stereo not given)	·	-3.7%	-11%	16%
CC(C)Oc1ccc(CNC2CCOC(C)(C)C2)cc1 (stereo not given)	-2	0.4%	-2%	9%
COc1ccc(N2C(=O)CC(NNC(=O)c3cccnc3)C2=O)cc1 (stereo not given)	0	-3.8%	4%	-7%
O=C(Nc1ccc(S(=O)(=O)Nc2nccs2)cc1)c1cnc(Cl)c(Cl)c1	1	?	4%	10µM*
CC(C)(C)c1ccc(-n2ncc3c2CCCC3NC(=O)CCn2cncn2)cc1 (stereo not given)	·	2.6%	3%	0%
CCC(C)c1ccccc1N=Cc1ccc2c(c1)OCO2 (stereo not given)	·	-0.5%	0%	15%
COc1ccc(N=Cc2oc3ccc4ccccc4c3c2O)cc1	-19	?	-53%	?
CC(=O)NCCOC(=O)Nc1sc(=S)n(C)c1C	-16	0.6%	-1%	3%
C/C(=N\NS(=O)(=O)c1ccc([N+](=O)[O-])cc1)c1ccc(NC(=O)c2ccco2)cc1	-6	3.5%	-11%	-11%
CCn1nc(NS(=O)(=O)c2ccc([N+](=O)[O-])cc2)c2cc3cc(C)ccc3nc21	·	0.9%	-53%	2%
CN1CCN(c2ccc(S(=O)(=O)N3CCOCC3)cc2NC(=O)COc2ccc(F)cc2Cl)CC1	·	-1.0%	-14%	-8%
Cc1ccc(/C([O-])=C(/C(=S)Nc2ccc(SC(F)F)cc2)[n+]2ccccc2)cc1[N+](=O)[O-]	1	4.5%	-25%	14%
Nc1ncnc2c1ncn2C1CCCO1 (stereo not given)	3	?	·	3%
Cc1nc(-c2ccc(S(=O)(=O)N3CCCCCC3)cc2)cs1	3	-0.3%	-30%	-9%
c1ccc(OCCCN2CCCC2)cc1	-11	-4.5%	-12%	1%
Cc1c(NC(=S)Nc2ccc(Cl)cc2)c(=O)n(-c2ccccc2)n1C	-6	0.8%	-1%	9%
C=CCSc1nc2ccccc2n1C(=O)/C=C/c1ccc(OC)c(OC)c1	-9	?	5%	-1%
O=C(c1cccc(-c2ccccc2)c1)N1CC[C@@H](N2CCC(O)CC2)[C@H](O)C1	·	?	-6%	-2%
COc1ccc(CCNC(=O)c2cc(COc3c(F)cccc3F)on2)c(OC)c1	·	0.0%	-42%	-1%
O=C(NCCC1=CCCCC1)C1CCC(=O)N(Cc2ccc(Cl)cc2)C1 (stereo not given)	·	-5.5%	-3%	-1%
CC(C)c1ccc(NC(=O)CN2C(=O)c3ccccc3S2(=O)=O)cc1	·	5.0%	1%	2%
COc1ccc(CC2CC(=O)N(c3ccc(C)cc3)C2=O)cc1 (stereo not given)	·	-2.5%	0%	23%

# (listing goes on)
SMILES	GLA inh pH 4.5	Rango-impB inh	miR-21 FLuc	Rango dissoc inh
O=C(CSc1nnnn1-c1cccnc1)NCc1cccs1	10	-0.1%	-1%	7%
O=C(COc1ccc(Cl)cc1)NCCN1CCCC1	·	0.0%	-4%	7%
COc1cc(NS(=O)(=O)c2ccc(NC(=S)NC(=O)/C=C/c3ccc(F)cc3)cc2)ncn1	-4	-4.3%	2%	7%
CC(C)CNC(=O)c1ccccc1C(=O)NC1(C(=O)NCC(C)C)CCCC1	·	-1.5%	·	-1%
CC1(C)CC(NC(=O)c2ccc(Cl)c(Cl)c2)CC(C)(C)N1	·	3.6%	-17%	27%
COc1ccc(S(=O)(=O)Nc2ccc(S(=O)(=O)Nc3cc(C)nc(C)n3)cc2)cc1OC	·	-2.3%	9%	-18%
CCOc1cc(N2CCOCC2)c(OCC)cc1NC(=O)CSc1ncn[nH]1	11	-6.3%	-1%	7%
O=S(=O)(Nc1nc2ccccc2nc1NCC1CCCO1)c1cccc(Cl)c1 (stereo not given)	0	?	-11%	-20%
COc1ccc2[nH]c3c(N4CCN(Cc5ccc6c(c5)OCO6)CC4)ncnc3c2c1	-1	-1.0%	29%	1%
O=c1c2ccccc2cnn1-c1ccc2ccccc2c1	-5	0.3%	-28%	0%
CC(C)OC(=O)CSc1nnc(-c2ccncc2)n1N	5	-0.8%	0%	5%
COc1ccc(NC(=O)c2cc3cccc(OC)c3oc2=Nc2ccc(C(=O)O)cc2)cc1OC	-13	2.3%	-33%	8%
O=C(NNC(=O)C1CC1)c1ccccc1[N+](=O)[O-]	·	-0.5%	-1%	-12%
Cc1cc(-c2cc(C(=O)O)c3ccccc3n2)c(C)s1	6	0.1%	-10%	-3%
Cc1ccc(NS(=O)(=O)c2cc(-c3n[nH]c(=O)c4ccccc34)ccc2C)cc1	-5	?	8%	12%
CSc1nc2cc(S(=O)(=O)N3CCOCC3)ccc2s1	5	-4.3%	-8%	24%
CC(C)(C)c1ccccc1NC(=O)C1=COCCO1	·	4.1%	·	-15%
Cc1cc(C)nc(SCc2nnc(SCC(=O)Nc3ccc(C)c(C)c3)n2Cc2ccco2)n1	-29	-1.6%	5%	-8%
CCOc1ccc(S(=O)(=O)N(CC)CC)cc1NS(=O)(=O)c1ccc(F)c(F)c1F	-25	2.1%	-8%	0%
CCOC(=O)C1=CN(c2cccc(F)c2)C=C(C(=O)OCC)C1c1cc(OC)c(O)c([N+](=O)[O-])c1	-7	0.6%	-2%	9%
COc1ccc(NC(=O)C2CCCCN2S(=O)(=O)c2ccccc2)cc1S(=O)(=O)N1CCOCC1 (stereo not given)	·	-5.8%	·	-19%
CCC(C)NC(=O)c1ccccc1-c1nc2ccccc2[nH]1 (stereo not given)	2	0.3%	-7%	-12%
C/C(=N\NC(=O)c1ccccc1)c1ccc(-n2ccnc2)cc1	-6	3.9%	-41%	12%
CCOC(=O)c1c(N)sc(C(=O)Nc2ccccc2F)c1C	7	1.1%	-36%	-16%
COc1cccc(C(=O)N2CCC(N3CC(C)OC(C)C3)CC2)c1 (stereo not given)	10	-0.3%	-1%	13%
CCC(=O)Nc1c(C)nn(C(=O)CC)c1C	1	-1.1%	-1%	4%
CCOC(=O)c1c(NC(=O)Cn2cnc([N+](=O)[O-])n2)sc2c1CCCC2	-15	-0.4%	-2%	-2%
O=C(NCCCN1CCCC1=O)c1c(O)nc2sccn2c1=O	·	-0.2%	·	-4%
Cc1[nH]c2ccccc2c1C(=O)CN1C(=O)C(=O)N(Cc2ccco2)C1=O	-1	1.9%	-15%	8%
CC1(C)CC(=O)C=C(C(=O)N2CCCC(CCC(=O)NCc3ccccc3F)C2)O1 (stereo not given)	-4	2.3%	-2%	-12%

# Remaining list, next part:
Molecule,GLA inh pH 4.5,Rango-impB inh,miR-21 FLuc,Rango dissoc inh
Cc1ccc(C(=O)Nc2ccc(Br)c(C(F)(F)F)c2)cc1,9,1.5%,9%,0%
CC(=O)Nc1ccc(S(=O)(=O)N(C)CC(=O)OCC(=O)N2CCCC2=O)cc1,·,0.3%,·,0%
CCCCOC(=O)c1nc[nH]c1C(=O)OCCCC,6,-1.5%,-1%,3%
COc1cc(C(=O)N2CCN(S(=O)(=O)c3ccc(Cl)cc3)CC2)ccc1OCC(=O)N1CCOCC1,·,0.5%,·,0%
NC(=O)c1c(N)sc(=S)n1CC1CCCO1 (stereo not given),-8,-0.1%,-11%,-4%
COC(=O)c1ccc(C(NC(=O)OCc2ccccc2)/C(F)=C/[C@@H](C)C(=O)NCc2ccc(OC)c(OC)c2)cc1 (stereo not given in full),8&0,-0.1%,-32%,-6%
COc1ccc(CC(=O)O/N=C(\N)c2cccc([N+](=O)[O-])c2)cc1,-2,-0.4%,-26%,-8%
CCOc1ccccc1NC(=O)C(OC(=O)c1ccc(CC)cc1)c1ccccc1 (stereo not given),-10,0.6%,-2%,17%

# More results.
Molecule,GLA inh pH 4.5,Rango-impB inh,miR-21 FLuc,Rango dissoc inh
CCC(CC)C(=O)Nc1nnc(S(=O)(=O)N2CCc3ccccc32)s1,·,0.0%,1%&-4%,4%
CC(=O)NC1C(=O)N(CCN2CCOCC2)c2ccc(Br)cc21 (stereo not given),·,4.8%,6%,?
Cc1ccc2cc(C(=O)O)c(C)nc2c1,4,0.4%,-5%,-1%
CCCCCn1c(=NC(=O)c2ccco2)c(C(=O)OCC)cc2c(=O)n3ccccc3nc21,6,?,5%,?
CC(=O)Nc1ccc2c(c1)CCCC2=O,-11,4.1%,-21%,7%
CCOC(=O)C1=C(C)NC(C)=C(C(=O)OCC)C1,12&1,?,-8%&-3%,13%
CCC(NC(=O)C1(C)CC1(Br)Br)c1ccc(C)cc1 (stereo not given),-5,1.4%,0%,16%
COc1ccc(CCn2c(=S)[nH]c3cc(C(=O)N4CCOCC4)ccc3c2=O)cc1OC,4,0.5%,7%,-5%

# Fetched one by one from above, 7 records:
Molecule,GLA inh pH 4.5,Rango-impB inh,miR-21 FLuc,Rango dissoc inh
CCC(CC)C(=O)Nc1nnc(S(=O)(=O)N2CCc3ccccc32)s1,·,0.0%,1%&-4%,4%
CCOC(=O)C1=C(C)NC(C)=C(C(=O)OCC)C1,12&1,?,-8%&-3%,13%
Cc1ccc2cc(C(=O)O)c(C)nc2c1,4,0.4%,-5%,-1%
CC(=O)NC1C(=O)N(CCN2CCOCC2)c2ccc(Br)cc21 (stereo not given),·,4.8%,6%,?
CCC(NC(=O)C1(C)CC1(Br)Br)c1ccc(C)cc1 (stereo not given),-5,1.4%,0%,16%
CCCCCn1c(=NC(=O)c2ccco2)c(C(=O)OCC)cc2c(=O)n3ccccc3nc21,6,?,5%,?
COc1ccc(CCn2c(=S)[nH]c3cc(C(=O)N4CCOCC4)ccc3c2=O)cc1OC,4,0.5%,7%,-5%

# Continuation.
Molecule,GLA inh pH 4.5,Rango-impB inh,miR-21 FLuc,Rango dissoc inh
Cc1ccc(CNC(=O)C2CCN(S(=O)(=O)c3c(C)noc3/C=C/N(C)C)CC2)cc1,·,?,-5%,-26%
Cc1cc(C)c([N+](=O)[O-])cc1NCC(=O)N1CCN(c2ccccc2)CC1,-7,-1.9%,0%,1%
COC(=O)c1ccc2c(c1)N(C)S(=O)(=O)c1cnc(SCC(=O)C(C)(C)C)nc1-2,2,6.1%,-12%,-12%
CC(C)(C)NC(=O)C(c1ccncc1)N(Cc1ccco1)C(=O)c1ccc(-c2ccccc2)[nH]1 (stereo not given),0,?,-12%,-14%
COc1ccc(-c2csc3ncnc(N4CCN(c5ccccc5Cl)CC4)c23)cc1,·,1.0%,9%,15%
CCc1nnc(NC(=O)c2ccc(S(=O)(=O)N(C)c3ccccc3)cc2)o1,8,0.4%,?,9%

# Assay outcomes (PubChem BioAssay)

# These rows are one share of the data (hit frequency here may not be typical).
